KCNQ2 block: KCNQ2 potassium channel inhibitors, primary screen, cell-based, CHO-K1, FluxOR thallium flux, B-score (AID 2156). Potassium voltage-gated channel subfamily KQT member 2 (Rattus norvegicus), O88943. hit rate 1.1% among 310,000. 20 min; active compounds read low; only compounds with negative scores are shown here; some inactives read as strong as hits. B-score at 10 µM;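 active means fluorescence ratio B-score at most minus 3 library SDs, with starting brightness B-score within 2 library SDs, cut at about -5.5 in these data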
Target sequence (O88943 whole entry, looked up): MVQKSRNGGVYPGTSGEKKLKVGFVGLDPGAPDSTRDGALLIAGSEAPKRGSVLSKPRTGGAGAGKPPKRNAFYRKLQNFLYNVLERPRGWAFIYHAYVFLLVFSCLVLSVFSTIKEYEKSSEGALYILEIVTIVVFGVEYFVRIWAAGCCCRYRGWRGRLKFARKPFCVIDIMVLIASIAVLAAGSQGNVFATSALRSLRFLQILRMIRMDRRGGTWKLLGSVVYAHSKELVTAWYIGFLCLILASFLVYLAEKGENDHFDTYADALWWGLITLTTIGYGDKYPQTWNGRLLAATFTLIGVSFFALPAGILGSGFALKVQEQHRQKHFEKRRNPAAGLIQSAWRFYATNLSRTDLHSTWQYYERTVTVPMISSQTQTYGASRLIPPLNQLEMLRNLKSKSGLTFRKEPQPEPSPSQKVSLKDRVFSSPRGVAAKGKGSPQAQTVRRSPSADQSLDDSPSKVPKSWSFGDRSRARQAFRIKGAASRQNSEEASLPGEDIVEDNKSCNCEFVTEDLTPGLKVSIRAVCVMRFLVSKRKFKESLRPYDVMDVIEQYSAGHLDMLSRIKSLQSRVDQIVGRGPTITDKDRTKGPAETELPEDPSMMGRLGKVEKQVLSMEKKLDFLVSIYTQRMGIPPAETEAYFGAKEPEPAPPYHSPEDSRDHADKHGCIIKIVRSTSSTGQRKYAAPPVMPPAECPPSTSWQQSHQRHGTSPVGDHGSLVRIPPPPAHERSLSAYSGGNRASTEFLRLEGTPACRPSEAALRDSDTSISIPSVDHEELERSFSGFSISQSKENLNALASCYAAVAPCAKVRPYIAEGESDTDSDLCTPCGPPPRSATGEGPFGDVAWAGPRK
KCNQ2 block baseline: second read-out of KCNQ2 block, no call of its own (marks repeat the call); B-score; measured here: initial fluorescence intensity artifact check;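 brightness before thallium and not channel activity; 0 = typical well and far values either way flag optical interference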
Active calls of the source: *; i = inactive. This is a subset; rates above refer to the full screens.

Start of the listing, in advance:
SMILES	KCNQ2 block	KCNQ2 block baseline
C[C@H](NC(=O)[C@@H]1CSC2c3ccccc3C(=O)N21)C(=O)NCCc1ccc(F)cc1 (stereo not given in full)	i	1.5
O=C(Nc1ccc2c(c1)OCCO2)C1CCCN(S(=O)(=O)c2cccc3nsnc23)C1 (stereo not given)	i	4.4
N#C/C(=C\c1c(F)cccc1Cl)S(=O)(=O)c1ccccn1	i	1.6
Cc1cc(C)nc(NN=C(c2ccccc2)c2ccccc2)n1	i	-0.17

The listing, from the first entry:
SMILES	KCNQ2 block	KCNQ2 block baseline
C[C@H](NC(=O)[C@@H]1CSC2c3ccccc3C(=O)N21)C(=O)NCCc1ccc(F)cc1 (stereo not given in full)	i	1.5
O=C(Nc1ccc2c(c1)OCCO2)C1CCCN(S(=O)(=O)c2cccc3nsnc23)C1 (stereo not given)	i	4.4
N#C/C(=C\c1c(F)cccc1Cl)S(=O)(=O)c1ccccn1	i	1.6
Cc1cc(C)nc(NN=C(c2ccccc2)c2ccccc2)n1	i	-0.17
O=S(=O)(c1ccc(Br)s1)N1CCC2(CC1)OCCO2	i	-0.21
CCOC(=O)C1=C(CS(=O)(=O)c2ccc(C)cc2)NC(=O)NC1c1ccc(O)c(OC)c1 (stereo not given)	i	-1.1
O=C(Nc1ccccc1Cl)C1CCCN(S(=O)(=O)c2ccc(F)cc2)C1 (stereo not given)	i	-0.36
CCN(CC)CCNC(=S)Nc1ccc2nc(N3CCOCC3)cc(C)c2c1	i	2.1
CCOc1ccccc1C(=O)NCC(=O)NCCc1ccc(S(N)(=O)=O)cc1	i	0.85
CCOC(=O)c1ccccc1NC(=O)c1cc(S(=O)(=O)N2CCOCC2)ccc1F	i	-0.61
Cc1cc(NC(=O)CCC(=O)N(c2ccc(F)cc2)C(C(=O)NC2CCCC2)c2ccccc2)no1 (stereo not given)	i	0.55
CN1CCC(N(C)S(=O)(=O)c2ccc(NC(=O)COc3ccc(Br)cc3Cl)cc2)CC1	i	0.52
CC(=O)C1=C(O)C(=O)N(c2ccc(O)cc2)C1c1ccccc1[N+](=O)[O-] (stereo not given)	i	0.21
Cc1cccc(CCNCc2c(C(=O)O)c(C)n(-c3ccccc3)c2C)c1	i	1.9
CCOC(CNC(=O)c1cc2c(=O)n(CC)c3ccccc3c2s1)OCC	i	1.8
Cc1nc(-c2ccccc2)sc1C(=O)/C=C/c1ccc(Cl)cc1	i	0.77
O=C(Nc1ccccc1NS(=O)(=O)c1ccc(F)cc1)C1CCC1	i	0.3
COc1cccc(NC(=O)Nc2cc(C(=O)NC(C)C)ccc2N2CC3CC(C2)c2cccc(=O)n2C3)c1 (stereo not given)	i	-0.03
COc1ccc(CN(C(=O)CCC(=O)N2CCCCC2)c2nccs2)cc1OC	i	-1.9
COc1ccc(/C=N/NC(=O)c2ccc(NC(=O)c3cccc([N+](=O)[O-])c3)cc2)c(C(=O)O)c1OC	i	0.01
Cc1ccccc1-n1ncc(C(C)NS(=O)(=O)c2sccc2C)c1C (stereo not given)	i	1
CSc1nc2c(c(=O)[nH]1)C(c1ccccc1)C1=C(CC(C)(C)CC1=O)N2 (stereo not given)	i	-0.08
O=C(NNC1=NCCC1)c1cccc(Br)c1	i	1.6
Cc1cc(C)c(NC(=O)CCCN2CCN(C)CC2)c(C)c1	i	-0.53
O=C(NN1C(=O)/C(=C/c2ccc(O)cc2)SC1=S)c1ccccc1O	-6*	3.3*
(listing goes on)
SMILES	KCNQ2 block	KCNQ2 block baseline
CC(C)CCN1CCN(Cc2cccn2-c2cccnc2)CC1CCO (stereo not given)	i	-0.51
OCCNc1ncnc2c1ncn2Cc1ccccc1	i	-1.9
COc1ccc(CNS(=O)(=O)c2ccc(F)c(C(=O)Nc3ccc(OC)cc3)c2)cc1	i	1.6
Cc1ccc(C(=O)NC(=S)Nc2ccccc2C(F)(F)F)c(C)c1	i	-0.47
CCOC(=O)c1ccccc1NC(=S)N1CCN(C2CCCCC2)CC1	i	-0.05
N#Cc1c2c(c[nH]c1=O)CCN2Cc1ccccc1	i	-1.2
CCOC(=O)C(=Cc1ccccc1OC)C(=O)OCC	i	2.4
COc1ccc(C2CN=NC23CCc2ccccc2C3=O)cc1 (stereo not given)	i	0.14
Cc1ccc(CN=c2c([N+](=O)[O-])nn(-c3cccc(C)c3)n2O)cc1	-7*	-2.4*
CN(C)/C=C(\C=N\OCc1ccc(Cl)cc1Cl)C(=O)Nc1ccc(Cl)c(Cl)c1	i	0.25
COc1ccc(NC(=O)CN(C)C(=O)CCC(=O)c2ccc(C)cc2)cc1	i	0.64
CC1CN(C2=NC(=O)/C(=C/c3ccncc3)S2)CC(C)O1 (stereo not given)	i	-0.52
Cc1cc(=O)oc2c(CN(C)Cc3ccccc3)c(O)ccc12	i	1.1
Cc1ccc2nc(N/N=C\c3ccc([N+](=O)[O-])o3)nc(-c3ccccc3)c2c1	i	0.81
Nc1nc2cc(S(=O)(=O)NC3=NCCCCC3)ccc2s1	i	0.08
Nc1nnc(SCC(=O)Nc2cccc(S(N)(=O)=O)c2)s1	i	-1.1
Cc1nc2ccccn2c1C(=O)NN=C1CCCC1	i	-0.73
COc1ccc(S(=O)(=O)N2CCCCC2)cc1NC(=O)c1ccc2ccccc2n1	i	-0.25
COc1ccc(NC(=O)c2c(-c3c(Cl)cccc3Cl)noc2C)cn1	i	1.1
COC(=O)c1sc2nc3c(cc2c1N)C(=O)CC(C)(C)C3	i	1.9
Cc1nn(-c2ccccc2)c2c1cc1c(=O)n(C)c(=O)nc-1n2-c1ccccc1F	i	0.39
O=C(Nc1ccnn1C1CCN(C2CCC2)CC1)c1ccccc1Cl	i	0.19
CCn1ncc(CN2CCC(C(=O)Nc3cccc(-c4cccc(F)c4)c3)CC2)c1C	i	0.05
CC1=CC(C)(C)Nc2ccc(OS(=O)(=O)c3ccc(C)cc3)cc21	i	1.5
COc1ccc(CCNS(=O)(=O)c2ccc(S(=O)(=O)N3CCCC3)cc2)cc1OC	i	1.8

Single values from the entries so far.
Reading for COc1ccc(NC(=O)CN(C)C(=O)CCC(=O)c2ccc(C)cc2)cc1 under KCNQ2 block baseline: 0.64
Reading for Cc1nn(-c2ccccc2)c2c1cc1c(=O)n(C)c(=O)nc-1n2-c1ccccc1F under KCNQ2 block baseline: 0.39
Reading for Cc1nc2ccccn2c1C(=O)NN=C1CCCC1 under KCNQ2 block baseline: -0.73
Reading for Nc1nc2cc(S(=O)(=O)NC3=NCCCCC3)ccc2s1 under KCNQ2 block baseline: 0.08
Reading for Nc1nnc(SCC(=O)Nc2cccc(S(N)(=O)=O)c2)s1 under KCNQ2 block baseline: -1.1
Reading for CC1=CC(C)(C)Nc2ccc(OS(=O)(=O)c3ccc(C)cc3)cc21 under KCNQ2 block baseline: 1.5

Full records, looked up by structure. Order of values: KCNQ2 block | KCNQ2 block baseline
O=C(Nc1ccnn1C1CCN(C2CCC2)CC1)c1ccccc1Cl reads i | 0.19
Cc1ccc2nc(N/N=C\c3ccc([N+](=O)[O-])o3)nc(-c3ccccc3)c2c1 reads i | 0.81
Nc1nc2cc(S(=O)(=O)NC3=NCCCCC3)ccc2s1 reads i | 0.08

More structures follow.
SMILES	KCNQ2 block	KCNQ2 block baseline
CCC(c1nnnn1CS(=O)(=O)c1ccc(C)cc1)N1CCC(C(N)=O)CC1 (stereo not given)	i	-0.24
O=S(=O)(c1ccccc1)c1cnc(-c2ccccc2)nc1N1CCCC1	i	0.39
Cc1c(C#N)c(NC(=O)CCl)n(Cc2ccccc2)c1C	i	-0.22
CCc1c(C)sc(NC(=S)N2CCN(C(=O)C3CCCO3)CC2)c1C(=O)OC (stereo not given)	i	1.5
Cc1cc(C(=O)NC(C)CCC(C)C)c2ccccc2n1 (stereo not given)	i	0.68
COCCN(CC(=O)NCc1ccc(F)cc1)C(=O)CCC(=O)Nc1ccccn1	i	0.23
O=C(c1ccc(CN2CCc3ccccc3C2)cc1)N1CCN(c2ccc(F)cc2)CC1	i	0.16
Cc1ccc(C)c(NC(=O)c2cccc(Oc3ccc([N+](=O)[O-])cc3Cl)c2)c1	i	-1.7
CCCN(CCC)C(=O)C[n+]1cccc(/C=N/O)c1	i	-0.49
COc1cccc2sc(N(CCN(C)C)C(=O)c3ccc4c(c3)CCCC4)nc12	i	-0.4
C=CCOC(=O)C1=C(C)NC(SCC)=C(C#N)C1c1ccc(Cl)cc1 (stereo not given)	i	-0.81
COc1ccc(/C(C)=N/NC(=S)Nc2cc(C)ccc2C)cc1	i	-0.05
CCOC(=O)c1cn(Cc2ccccc2)c(C(=O)OC(C)(C)C)c1O	i	0.55
O=C(NCc1ccc2[nH]c3c(c2c1)CCCC3)c1ccc(S(=O)(=O)N2CCCCC2)cc1	i	-0.27
COCCNC(=O)CN1C(=O)CC(C)(C)S(=O)(=O)c2ccccc21	i	0.61
COc1cccc(N2CN(C3CCCCC3)CNC2=S)c1	i	1.7
CSc1ccccc1OCc1cc(C(=O)N(C)C2CCCc3ccccc32)no1 (stereo not given)	i	0.45
CCCCC(=O)NCCc1cc2c(C)ccc(C)c2[nH]c1=O	i	-0.52
COc1ccc(-c2cn3c(C)c(C(=O)Nc4cc(NC(C)=O)ccc4OC)sc3n2)cc1	i	1.7
Cc1sc2nc(SCC(=O)c3cccs3)n(Cc3ccco3)c(=O)c2c1C	i	-2.7
CCn1cc(C(=O)N2CCN(c3ccc(C(C)=O)cc3)CC2)c2cc(OC)c(OC)cc2c1=O	i	0.6
O=C(c1ccc([N+](=O)[O-])cc1)N1CCN(c2ncccn2)CC1	i	0.57
Cc1ccc(C(C)C)c(Oc2cnccn2)c1	i	-0.59
CN=C(Nc1ccc(Cl)cc1)c1cccc(C(F)(F)F)c1	i	-2.2
Cc1[nH]c2ccccc2c1/C=N/Nc1ccc([N+](=O)[O-])cc1	i	3.7
The results go on:
SMILES	KCNQ2 block	KCNQ2 block baseline
CCNc1nc(Oc2ccc(C(=O)OCC)cc2)nc(N2CCOCC2)n1	i	-0.64
COc1ccc(/C=C/C(=O)NCC2COc3ccccc3O2)cc1OC (stereo not given)	i	0.51
CC(C)C[C@H](NC(=O)c1nc[nH]c1C(=O)NCc1ccccc1)C(=O)OCc1ccccc1	i	-0.64
COc1ccc(C(C)NC(=O)c2ccccc2Br)cc1OC (stereo not given)	i	-0.35
COc1ccc2c(C)c(CC(=O)N3CCN(C(=O)C4COc5ccccc5O4)CC3)c(=O)oc2c1 (stereo not given)	i	1.4
Cc1cccc(-c2noc(-c3ccccc3C(=O)NCC3CCCO3)n2)c1 (stereo not given)	i	-1.3
COc1ccc(CCNC(=O)COc2ccc([N+](=O)[O-])cc2)cc1	i	0.36
CC(NC(=O)COC(=O)c1cc([N+](=O)[O-])ccc1N1CCOCC1)c1ccc(F)cc1 (stereo not given)	i	-2.2
C[C@@]12CCC=C[C@H]1[C@H](c1ccc(F)c(/C=C/c3ccccc3)c1)N(Cc1ccccc1)C2=O	i	0.44
O=C(COC(=O)c1ccccc1Cl)NCCC1=CCCCC1	i	-1.5
CCOC(=O)c1cc(C(O)(C(F)(F)F)C(F)(F)F)c(/N=C/N(C)C)o1	i	1.2
CCN(Cc1cc2ccccc2[nH]c1=O)C(=O)C(C)C	i	0.34
Cc1cccc(C)c1NC(=O)CSc1nnc(NC(=O)c2ccccc2C(=O)O)s1	i	-1.2
O=C(COC(=O)CCS(=O)(=O)c1ccc(Cl)cc1)Nc1ncc(Cl)cc1Cl	i	2
COc1c(C)cc(S(=O)(=O)N2CCCC2)c(C)c1C	i	1.3
CC(=O)c1cccc(NC(=O)c2ccc3c(c2)C(=O)N(Cc2cccnc2)C3=O)c1	i	-0.04
CCOc1cc(C(=O)NCCC(=O)N2CCC3(CC2)NCCc2[nH]cnc23)cc(OCC)c1OCC	i	0.08
CN(C[C@@H](Cc1cccc2ccccc12)N(C[C@H](Cc1ccccc1)N(CCc1ccccc1)N=O)N=O)N=O	i	0.01
S=C(NCCSCc1c(Cl)cccc1Cl)Nc1ccccc1	i	0.5
COC(=O)Cc1ccc(NC(=S)Nc2cccc(C)n2)cc1	i	-1.6
O=c1c(Cc2ccc(F)cc2)c(O)ccn1C1CCCCC1	i	0.12
Cc1ccc(NC(=O)CNC(=O)c2ccc(Oc3ccccc3)cc2)nc1	i	-0.71
COc1ccc(-c2cc(C(F)F)n3ncc(C(=O)N4CCc5ccccc54)c3n2)cc1	i	-0.69
O=C(NCC1CCCO1)c1ccc(Cl)c(F)c1F (stereo not given)	i	-2.5
CCCCCCCOc1ccc(C2(C)NC(=O)NC2=O)cc1 (stereo not given)	i	0.27
Carrying on.
SMILES	KCNQ2 block	KCNQ2 block baseline
COCCN1CCN(Cc2cn(C)nc2-c2ccc(Oc3ccccc3)cc2)CC1	i	3
COc1ccccc1CCN1CCCC(CN(C)CC(C)(C)CO)C1 (stereo not given)	i	0.21
COc1cc(/C=N/N2CCN(C3c4ccccc4-c4ccccc43)CC2)ccc1O	i	-0.06
O=C(CCN1C(=O)/C(=C\c2ccccc2)SC1=S)Nc1ccc(C(=O)O)cc1	i	-0.39
Cc1ccccc1NS(=O)(=O)c1cc(C(=O)NCCSC2CCCCC2)ccc1C	-5.8*	-1.6*
COc1ccccc1C(=O)NC(=O)CSc1cccc[n+]1[O-]	i	-0.06
CCC(CO)(CO)N(CC(=O)Nc1ccc(OC)cc1)CC(=O)Nc1ccc(OC)cc1	i	-0.24
FC(F)(F)c1cccc(NC(=S)NC(c2ccccc2)c2ccccc2)c1	i	1.8
CC1CCCN(CCCOc2ccccc2-c2ccccc2)C1 (stereo not given)	i	0.15
COC(=O)COc1cccc(NC(=O)C(c2ccccc2)c2ccccc2)c1	i	-0.49
CCOc1ccccc1NC=C1C(=O)OC2(CCCCC2)OC1=O	i	0.34
CCCN(C(=O)COC(=O)COc1c(C)cccc1C)c1c(N)n(Cc2ccccc2)c(=O)[nH]c1=O	i	0.41
O=C(c1ccncc1)N1CCN(C2CCC(c3ccccc3)CC2)CC1 (stereo not given)	i	0.17
COc1n[nH]c(C(=O)Nc2cc(F)ccc2C)c1[N+](=O)[O-]	i	0.98
